miR-21 FLuc: qHTS Assay for Modulators of miRNAs and/orActivators of miR-21 | HeLa miR-21 FLuc reporter, luciferase, 48 h | Potency, µM (highest dose often 38.3 µM), inactives show at the top dose reporter change, positive = more light | 340,000 tested, under 10 active; active = well fitted rising curve with a large enough effect; inconclusive = small, poorly fitted or top-dose-only effect; inactive = no such curve, though single readings can be large or run the other way;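 further: % of control where 0% means no effect; miR-21 action dims this reporter so a rising signal means less miR-21 action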
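HeLa cells stably expressing CMV-driven firefly luciferase with a downstream miR-21 binding sequence, endogenously expressing miR-21, were treated with titrations (up to about 40uM final) for 48 hours at 37 degree Celsius. Luciferase luminescence was read after lysis.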
Rango complex inh: qHTS Assay for Inhibitors of Rango (Ran-regulated importin-beta cargo) - Importin beta complex formation | Importin subunit beta-1 (Homo sapiens), Q14974 | Rango CFP/YFP FRET sensor + importin beta, 45 min | Potency, µM (highest dose often 92.2 µM), for inactives: top-dose inhibition of complex formation | hit rate 0.031% among 340,000 | AID 540263, 2011; active = rising FRET ratio curve, often small or poorly fitted; inconclusive = mostly compound fluorescence or quenching in the first reads; inactive = flat curves in all reads;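 further: potency means the concentration at half of the fitted maximal effect; 0% = DMSO wells and 100% = buffer wells lacking importin beta; nearly all actives have a fitted effect of over 15% in size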
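FRET biosensor Rango (snurportin 1 IBB between N-terminal EYFP and C-terminal Cerulean), 50 nM in PBS/1 mM DTT/0.02% Tween-20/0.1% BSA, preincubated 5 min RT with compound; 0.125 microM importin beta added, 45 min RT, CFP/YFP FRET ratio read.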
Rango release inh: qHTS Assay for Inhibitors of RanGTP induced Rango (Ran-regulated importin-beta cargo) - Importin beta complex dissociation; hit rate 0.071% among 340,000; Biochemical FRET Rango-importin beta, RanGTP-induced dissociation; Potency, µM (doses to about 46.1 µM), for the others: at the highest dose activity change, negative = inhibition; AID 540253, 2011; active means falling FRET ratio curve, often poorly fitted, with flat reads before Ran was added; inconclusive means other falling curves, or compound fluorescence or quenching; inactive means flat or rising ratio curve;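 further: potency means the concentration at half of the fitted maximal effect; % of control where 0% means no effect; nearly all actives have a fitted effect of over 45% in size; -100% = wells without RanGTP and RCC1; the record marks most hits as doubtful in a second field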
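Quantitative HTS using a FRET biosensor: 0.1 uM Rango, 0.25 uM importin beta, 0.6 uM Ran, 2 mM GTP, 0.2 uM RCC1 final, PBS with DTT, Tween-20 and BSA. Post-read taken 45 min after Ran addition.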
GLA inh pH 4.5: qHTS Assay for Inhibitors of Human alpha-Galactosidase at pH 4.5; Alpha-galactosidase A (Homo sapiens), P06280; purified enzyme, 4-MU-alpha-Gal fluorescence, pH 4.5; activity change, negative = inhibition, % at 105 µM; 230,000 tested, under 10 active; AID 1467, 2008; inconclusive = small, poorly fitted or top-dose-only inhibition, or a rising curve; inactive = flat fitted curve, though single readings scatter; no compound was filed as active;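 further: 0% = full activity with enzyme and -100% = basal without enzyme; dose as in the result columns while the protocol names 77 µM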
Target sequence (P06280 whole entry, looked up): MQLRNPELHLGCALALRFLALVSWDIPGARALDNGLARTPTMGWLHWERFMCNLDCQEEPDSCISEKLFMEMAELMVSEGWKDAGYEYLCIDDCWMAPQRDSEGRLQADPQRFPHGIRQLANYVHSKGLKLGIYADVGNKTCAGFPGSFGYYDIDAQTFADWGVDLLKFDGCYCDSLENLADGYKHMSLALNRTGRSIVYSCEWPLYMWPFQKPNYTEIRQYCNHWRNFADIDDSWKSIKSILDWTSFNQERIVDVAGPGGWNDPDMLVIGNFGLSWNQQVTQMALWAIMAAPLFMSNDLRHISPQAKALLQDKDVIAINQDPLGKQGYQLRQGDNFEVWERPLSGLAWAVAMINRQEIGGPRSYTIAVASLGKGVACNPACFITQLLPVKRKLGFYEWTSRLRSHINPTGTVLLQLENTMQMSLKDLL
* marks the source's active call; other numbers are inactive results; u = inconclusive; x = no result given. A portion of the library; the hit share may differ from the screen's.

SMILES	miR-21 FLuc	Rango complex inh	Rango release inh	GLA inh pH 4.5
Cc1c(Cl)cnc(NC(=O)COC(=O)c2ccc([N+](=O)[O-])s2)c1Cl	-6.2%	-0.1%	-14.3%	3.5
CC(C)CNC(=O)COC(=O)c1n[nH]c2ccccc12	-10.1%	0.7%	3.4%	3.8
Cc1cnc(CN(C)Cc2c(C(=O)N3CCc4ccccc4C3)nc3ccc(Cl)cn23)[nH]1	-2.9%	4.7%	-4.1%	-1.1
COc1cccc(OC)c1C(=O)Nc1ccccc1N1CCCCC1	6.3%	-3.4%	11.8%	x
COC(=O)c1ccccc1OCC(=O)N1CCN(c2ccc(Cl)cc2)CC1	-2.9%	0.0%	-6.2%	5.5
COC(=O)c1ccsc1NC(=O)c1ccccc1	-8.4%	-0.4%	13.6%	1.9
O=C(NCCCNCc1ccccc1)/C(=N\O)c1ccccc1	-9.3%	2.1%	-14.7%	3.9
Cc1cc(N2CCOCC2)n2ncc(-c3ccc(Cl)cc3)c2n1	-86.3%	3.9%	-3.0%	26.3
Cc1cc(C)cc(SCc2noc(C(=O)NCCCN3CCOCC3)c2C(=O)NCCCN2CCOCC2)c1	1.1%	5.2%	-5.6%	-6.5
O=C(CCCn1c(=O)[nH]c2cc(Cl)ccc2c1=O)NCCCN1CCN(c2ccc(F)cc2)CC1	-0.7%	-0.4%	6.3%	-1.4
O=C(NCCc1ccccc1F)C1CCCN1S(=O)(=O)c1ccc2ccccc2c1 (configuration not stated)	-1.1%	6.9%	-6.5%	-12.2
CCc1ccccc1NC(=O)c1cc(S(=O)(=O)N(C)C)ccc1N1CCCC1	0.9%	0.0%	-14.2%	x
COC(=O)C1=C(C)Nc2nnnn2C1c1cccnc1 (configuration not stated)	-4.1%	-3.6%	-2.2%	-19.3
CCS(=O)(=O)N1CCN(c2ccc(C(=O)NC3C4CC5CC(C4)CC3C5)cc2[N+](=O)[O-])CC1 (configuration not stated)	-4.2%	-5.7%	u	-9.6
O=C(O)/C=C/C(=O)NC1CCCCC1	9.2%	-0.7%	8.5%	-0.6
COc1cc(C(=O)Nc2ccc(NC(=O)c3ccccc3)nc2)cc(OC)c1OC	13.7%	-1.8%	-15.3%	x
COC(=O)C(CCCCN1C(=O)C2C3C=CC(C3)C2C1=O)N1C(=O)C2C3C=CC(C3)C2C1=O (configuration not stated)	-0.2%	-0.2%	-5.0%	1.5
Cc1cc(=O)oc2c(C)c(OCC(=O)Nc3cccnc3)ccc12	-18.6%	2.9%	-5.9%	x
O=C(COC(=O)c1ccc(Br)o1)NCCNC(=O)COC(=O)c1ccc(Br)o1	x	-5.0%	44.0%	x
CC1=NN(c2ccccc2)C(=O)/C1=C/c1c(O)n(-c2ccc(F)c(Cl)c2)[nH]c1=O	-30.7%	3.5%	15.8%	-12.7
COc1ccc2oc(=O)c(C(=O)N3CCCc4ccccc43)cc2c1	-1.6%	0.3%	-11.9%	4.5
O=C(NCCCn1ccnc1)C(Cc1ccccc1)N1C(=O)c2ccccc2C1=O (configuration not stated)	4.7%	-2.7%	-4.7%	2.1
CC(C)OC(=O)C1=C2SCC(=O)N2C(N)=C(C#N)C1	-9.6%	0.0%	-20.5%	-0.2
CCOC(=O)c1ccccc1N/C=C/C(=O)c1ccccc1	x	u	u	x
CCCN(CCC)C(=O)Cn1c(=O)c2ccccc2n2c(=S)sc(-c3ccccc3C)c12	-3.0%	-2.2%	-0.7%	0.8
O=S(=O)(c1ccc2c(c1)OCCO2)N1CCN(c2nc(-c3cccnc3)nc3ccccc23)CC1	-1.0%	x	x	1.0
Cc1ccccc1OCc1nnc(SCC(=O)Nc2ccc(N3CCOCC3)c(Cl)c2)n1C	-1.1%	-0.9%	6.6%	-9.0
CN(C)c1nc2n(c(=O)n1)CCS2	0.3%	0.0%	-0.1%	-1.2
O=c1[nH]c(=O)n(Cc2ccccc2)c2c1C(C(F)(F)F)(C(F)(F)F)N=C(c1ccco1)N2	-1.3%	-2.1%	-8.1%	0.6
O=C(c1ccccc1)N1CCN(CCc2ccccc2)CC1	-3.1%	-4.1%	24.9%	x
CNc1nc(-c2ccc3c(c2)CCN3C(=O)c2ccccc2F)c(C)s1	-18.6%	-0.5%	5.0%	-3.3
O=S(=O)(NCc1ccccc1F)NCc1ccccc1F	-5.5%	4.4%	-3.0%	-22.5
c1ccc(-n2c(SCc3ccncc3)nnc2-c2ccco2)cc1	-8.1%	0.1%	-8.0%	-1.2
CC1CCN(C(=O)c2[nH]cnc2C(=O)NCc2ccc(CNC(=O)OC(C)(C)C)cc2)CC1	x	0.4%	-3.8%	x
Cn1c(SCC(=O)Nc2ccc(Br)cn2)nnc1C1CC1	4.6%	0.2%	-11.1%	x
CC(SCC(=O)Nc1ccc(F)cc1)c1nc2ccccc2c(=O)[nH]1 (configuration not stated)	-0.6%	-3.3%	1.9%	x
Nc1cccc(C#Cc2ccc3c(c2)C(=O)/C(=C/c2ccsc2)O3)c1	x	0.3%	0.7%	x
Cc1cccc(NC(=O)COC(=O)c2n[nH]c3ccccc23)c1C	x	-0.1%	-15.5%	x
N#CCSc1nnc(COc2ccccc2)n1-c1ccccc1	-4.8%	0.6%	-13.8%	-1.7
COC(=O)c1cc2c(=O)n3ccccc3nc2n(C)c1=N	1.3%	x	x	u
Clc1cccc(Cl)c1Cn1nnc(-c2cccs2)n1	-21.0%	-6.0%	0.0%	-1.3
COc1ccc(CCNS(=O)(=O)c2csc(C(N)=O)c2)cc1OC	-0.6%	-1.6%	-15.1%	x
Cc1cc(Br)ccc1NC(=O)C1CCN(C(=O)c2ccco2)CC1	-3.6%	4.3%	23.3%	x
O=[N+]([O-])c1cccc(/C=N/Nc2nc(NCc3ccccc3)nc(N3CCOCC3)n2)c1	-5.8%	-2.5%	-13.0%	-1.1
CSCCC(NC(=O)c1ccc(Br)cc1)C(=O)O (configuration not stated)	-1.0%	-3.3%	5.1%	2.7
Cc1cccc(C)c1OCc1nnc(SCC(=O)NCc2ccccc2)o1	-1.4%	7.5%	1.0%	-10.2
CC(C(=O)NN=C(c1ccccc1)c1ccccc1)N1CCCC1 (configuration not stated)	-7.0%	0.4%	3.7%	4.9
COc1ccccc1N(C)S(=O)(=O)c1ccc(C(=O)OCC(=O)Nc2ccccc2F)cc1	0.6%	-3.1%	-1.4%	-4.6
Cc1cc(NS(=O)(=O)c2ccc(NC(=O)Cc3ccc(Cl)c(Cl)c3)cc2)no1	x	2.0%	5.2%	x
CC1(C)CC(=O)N(CC(=O)N2CCN(c3ncccn3)CC2)c2ccccc2S1(=O)=O	-0.7%	-3.0%	-13.1%	7.3
COC(=O)c1ccc(Nc2nc(C)nc3c2nnn3Cc2ccccc2)cc1	-8.9%	-3.0%	12.6%	x
COc1ccccc1C(=O)NCCC(=O)N(C)CC(=O)Nc1c(Cl)cccc1Cl	x	-0.2%	-7.1%	x
CCOC(=O)N1CCC(NC(=O)c2cccc3c2C(=O)N(Cc2cccnc2)C3)CC1	-13.7%	-0.6%	-5.3%	-3.4
c1ccc(Cc2nnc3n2N=C(c2ccccc2)CS3)cc1	-20.7%	0.2%	35.3%	3.0
N#Cc1ccc(CSc2nnc(Nc3ccccc3)s2)cc1	-11.1%	4.6%	9.7%	-3.5
CSc1ncc(CN2CCN(C(C)C)C(CCO)C2)cn1 (configuration not stated)	4.4%	3.9%	-10.3%	-0.8
CC(=O)N1CCN(C(=O)c2cccc(S(=O)(=O)N3CCOCC3)c2)CC1	x	-2.7%	13.7%	x
COc1ccccc1-c1cc(SC)c(C#N)c(=O)o1	15.4%	u	u	1.2
COC(=O)Cn1c(C(F)(F)F)nc2ccccc21	0.6%	4.6%	19.5%	-16.7
CCN1CCN(C(=S)c2ccc(Cl)cc2)CC1	-10.4%	2.1%	-12.8%	-5.7

Not a retest: entries from further up.
SMILES	miR-21 FLuc	Rango complex inh	Rango release inh	GLA inh pH 4.5
CC(C(=O)NN=C(c1ccccc1)c1ccccc1)N1CCCC1 (configuration not stated)	-7.0%	0.4%	3.7%	4.9
COc1ccccc1N(C)S(=O)(=O)c1ccc(C(=O)OCC(=O)Nc2ccccc2F)cc1	0.6%	-3.1%	-1.4%	-4.6
Cc1cc(NS(=O)(=O)c2ccc(NC(=O)Cc3ccc(Cl)c(Cl)c3)cc2)no1	x	2.0%	5.2%	x
CC1(C)CC(=O)N(CC(=O)N2CCN(c3ncccn3)CC2)c2ccccc2S1(=O)=O	-0.7%	-3.0%	-13.1%	7.3
COC(=O)c1ccc(Nc2nc(C)nc3c2nnn3Cc2ccccc2)cc1	-8.9%	-3.0%	12.6%	x
COc1ccccc1C(=O)NCCC(=O)N(C)CC(=O)Nc1c(Cl)cccc1Cl	x	-0.2%	-7.1%	x
CCOC(=O)N1CCC(NC(=O)c2cccc3c2C(=O)N(Cc2cccnc2)C3)CC1	-13.7%	-0.6%	-5.3%	-3.4
c1ccc(Cc2nnc3n2N=C(c2ccccc2)CS3)cc1	-20.7%	0.2%	35.3%	3.0
N#Cc1ccc(CSc2nnc(Nc3ccccc3)s2)cc1	-11.1%	4.6%	9.7%	-3.5
CSc1ncc(CN2CCN(C(C)C)C(CCO)C2)cn1 (configuration not stated)	4.4%	3.9%	-10.3%	-0.8
CC(=O)N1CCN(C(=O)c2cccc(S(=O)(=O)N3CCOCC3)c2)CC1	x	-2.7%	13.7%	x
COc1ccccc1-c1cc(SC)c(C#N)c(=O)o1	15.4%	u	u	1.2
COC(=O)Cn1c(C(F)(F)F)nc2ccccc21	0.6%	4.6%	19.5%	-16.7

Later entries
SMILES	miR-21 FLuc	Rango complex inh	Rango release inh	GLA inh pH 4.5
Cc1ccc(-c2cc(C(=O)NN3CCOCC3)c3cc(Br)ccc3n2)o1	-0.4%	u	0.3%	-7.2
Cc1cc(C)c2c(CN3CCCCC3)cc(=O)oc2c1	-23.4%	-0.3%	-12.3%	x
CC1CCc2sc3nc(NCc4ccco4)n4ncnc4c3c2C1 (configuration not stated)	-59.5%	0.2%	8.0%	u
Cc1ccc(CCCOC(=O)CN2CCCCC2)cc1	1.4%	0.2%	8.5%	-8.3
O=C(Nc1ccc(Cl)c(Cl)c1)Nc1nnc(CC2=CCCCC2)s1	-2.2%	0.0%	2.3%	1.6
O=c1o[nH]c(-c2ccccc2)c1C=Nc1ccc(Cl)cc1	-5.6%	-1.9%	-2.1%	2.9
Cc1cc(C)c2nc(N(CCCN(C)C)C(=O)c3ccc4c(c3)CCCC4)sc2c1	x	-2.3%	7.8%	x
O=c1oc2c3c4c(cc2c2c1CCC2)OCCN4CCC3	-17.8%	u	u	u
COc1ccc(CN2CCN(C(=O)C3CC(=O)N(C4CCCCCC4)C3)CC2)c(OC)c1OC (configuration not stated)	23.5%	2.7%	2.7%	1.8
CCOc1ccccc1N1CCN(C(=O)c2cccc(S(=O)(=O)N3CCOCC3)c2)CC1	x	-1.9%	-3.9%	x
O=C(NCCCCc1ccccc1)c1ccc(Br)cc1	-43.1%	0.7%	-10.9%	x
